# Bioassay records as filed in PubChem.
# NS1 function inh – inhibitors of influenza NS1 protein function; AID 2326; S. cerevisiae slowed by influenza A NS1, growth recovery by OD600; 270,000 compounds, 0.4% hits; Potency, µM (highest dose often 46.1 µM), for inactives: top-dose activity, positive = more growth; active means well fitted rising curve with a large enough effect; inconclusive means small, poorly fitted or top-dose-only effect; inactive means no such curve, though single readings can be large or run the other way; note: nearly all actives have a fitted effect of over 50% in size
#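 Recovery from NS1-induced slow growth read by OD600 in budding yeast switched to galactose assay medium (pH 6.0, -URA) at 1:100 dilution. Compound 23 nl per well; the matching strain lacking NS1 serves as control.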
# StopGo reporter – FMDV 2A StopGo reporter, luciferase signal; AID 1159524; human cells with a luciferase reporter of 2A StopGo recoding; control for the full effect not named in the record; 410,000 compounds, 1.2% hits; Potency, µM (highest dose often 57.9 µM), inactives show at the top dose signal change, negative = less light; active = well fitted falling curve with a large enough effect; inconclusive = small, poorly fitted or top-dose-only effect; inactive = no such curve, though single readings can be large or run the other way; tested in HEK293T cells; note: % is set by controls: 0 for no effect and ±100 for the full control effect; nearly all actives have a fitted effect of over 45% in size; luciferase light after 4 h
# LASV entry inh – blocks Lassa virus binding to or entry into cells; Lassa virus pseudotype entry inhibition, cell reporter; control for the full effect not named in the record; Potency, µM (doses to about 37.9 µM), inactives show at the highest dose activity change, negative = inhibition, hits mostly inhibitors; 300,000 compounds, 1.2% hits; active means well fitted inhibition curve with a large enough effect; inconclusive means small, poorly fitted or top-dose-only effect, or effect the other way; inactive means flat fitted curve, though single readings scatter; tested in HEK293 cells; note: % is set by controls: 0 for no effect and ±100 for the full control effect; nearly all actives have a fitted effect of over 50% in size; luciferase read-out
# RE007 growth inh – less growth of the S. pombe RE007 Vpr strain; S. pombe RE007 Vpr strain, BacTiter-Glo ATP luminescence, 24 h; control for the full effect not named in the record; 360,000 compounds, 0.21% hits; AID 651644; Potency, µM (highest dose often 92.2 µM), without a hit: at the top dose activity change, negative = less growth; active = well fitted falling curve with a large enough effect; inconclusive = small, poorly fitted or top-dose-only effect; inactive = no such curve, though single readings can be large or run the other way;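 note: % is set by controls: 0 for no effect and ±100 for the full control effect; nearly all actives have a fitted effect of over 50% in size; the assay follows cell death caused by Vpr and the record does not say whether a fall means rescue or toxicity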
#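 Fission yeast RE007 carrying one integrated HIV-1 vpr copy, seeded at OD 0.01 in PMG+AL medium with 23 nL pinned compound. Grown 24 h at 30 degrees; viability read by BacTiter-Glo luminescence after 5 min.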
# Cruzain Triton – cruzain (T. cruzi) inhibition with detergent; P25779; purified cruzain, Z-FR-AMC fluorescence, 0.01% Triton; Potency, µM, without a hit: max response, negative = inhibition, hits mostly inhibitors; 200,000 compounds, 0.43% hits;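 note: plate controls were neutral wells for no effect and buffer without enzyme for full effect; nearly all actives have a fitted effect of over 40% in size; top concentration of the series not given in the record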
# Target sequence (P25779 123-467 limits assumed): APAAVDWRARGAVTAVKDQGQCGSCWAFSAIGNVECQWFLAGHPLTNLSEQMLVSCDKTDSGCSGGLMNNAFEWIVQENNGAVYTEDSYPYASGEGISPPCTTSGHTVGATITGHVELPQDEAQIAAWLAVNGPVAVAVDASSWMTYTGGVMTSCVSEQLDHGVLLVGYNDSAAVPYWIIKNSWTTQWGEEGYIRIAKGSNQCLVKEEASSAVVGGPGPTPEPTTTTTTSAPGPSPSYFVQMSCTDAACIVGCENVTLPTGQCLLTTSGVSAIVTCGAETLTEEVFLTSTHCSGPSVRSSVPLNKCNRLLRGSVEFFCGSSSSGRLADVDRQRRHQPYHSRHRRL
#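 Cysteine protease activity tested under reducing, mildly acidic conditions (100 mM sodium acetate pH 5.5, 5 mM DTT) plus 0.01% Triton X-100. Cruzain 1.5 nM; substrate Z-FR-AMC 2 uM; 15 min compound preincubation at room temperature.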
# Marburg entry inh – blocks Marburg virus binding to or entry into cells; Potency, µM (titrated, usually from 37.8 µM), for the others: at the highest dose activity change, negative = inhibition, actives largely listed as inhibitors; Marburg virus pseudotyped entry inhibition, cell reporter; control for the full effect not named in the record; about a third of the inactives were read at about 46 µM; AID 540276; 300,000 compounds, 1.8% hits; active = well fitted inhibition curve with a large enough effect; inconclusive = small, poorly fitted or top-dose-only effect, or effect the other way; inactive = flat fitted curve, though single readings scatter; tested in HEK293 cells; about a fifth of its hits are not listed in these tables; note: % is set by controls: 0 for no effect and ±100 for the full control effect; luciferase read-out
# SARS PLP yeast – blocks SARS-CoV papain-like protease in a yeast assay. S. cerevisiae expressing SARS-CoV PLpro, growth rescue; control for the full effect not named in the record. Potency, µM (highest dose often 32.9 µM), for inactives: at the top dose activity, positive = growth rescue. 330,000 compounds, 0.19% hits. AID 485353; active means well fitted rising curve with a large enough effect; inconclusive means small, poorly fitted or top-dose-only effect; inactive means no such curve, though single readings can be large or run the other way; note: 0% is about no effect; nearly all actives have a fitted effect of over 55% in size; growth read by luminescence after 48 h
# Cruzain noTriton – blocks cruzain activity in detergent-free assay | P25779 | purified cruzain, Z-FR-AMC fluorescence, no detergent | Potency, µM, for inactives: max response, negative = inhibition, actives largely listed as inhibitors | 200,000 compounds, 2.3% hits | AID 1476;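 note: plate controls were enzyme without inhibitor for no effect and buffer without enzyme for full effect; nearly all actives have a fitted effect of over 40% in size; top concentration of the series not given in the record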
#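 Purified cruzain at 1.5 nM, pre-incubated 15 min with compound at room temperature in 100 mM sodium acetate pH 5.5, 5 mM DTT, 0.00005% Triton X-100. Reaction started with 2 uM Z-FR-AMC; AMC fluorescence increase over 60 s gives rate.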
# * marks the source's active call; other numbers are inactive results; ? = inconclusive; / = no result given; & = joins results of further samples; [ ] = remark or other dose. Unless noted, calls come from the whole dose curve; as a rule, active = well fitted curve in the direction sought with a large enough effect; inconclusive = small, poorly fitted or top-dose-only effect, or another doubt; inactive = no such curve, though single readings can be large; an effect the other way counts as inactive or inconclusive. Potency is the fitted concentration of half-maximal effect.
SMILES,NS1 function inh,StopGo reporter,LASV entry inh,RE007 growth inh,Cruzain Triton,Marburg entry inh,SARS PLP yeast,Cruzain noTriton
CN(C(=S)NC(=O)C1(C)CC1(Cl)Cl)c1ccccc1 (stereo not given),-4%,-5%,9%,27%,0.2%,4%,5%,6%
CCN(CC(=O)Nc1ccccc1C(F)(F)F)C(=O)c1cccc(S(=O)(=O)N2CCN(C)CC2)c1,/,-9%,5%,-5%,/,0%[46.1 µM],3%,/
O=C(CCS(=O)(=O)Cc1ccccc1)N1CCc2ccccc2C1,-4%,25%,4%,-15%,3.6%,5%,-4%,6%
CC(=O)Nc1cc(S(=O)(=O)C(F)(F)F)ccc1Cl,6%,-2%,-5%,-6%,1.5%,-4%[46.1 µM],2%,-1%
C=CCN1CCS(=O)(=O)N(Cc2ccccc2)[C@@H](C(C)C)C1=O,/,4%,?,-3%,/,/,-20%,/
O=C(Nc1cc(Br)ccc1O)c1cnn2c(C(F)F)cc(C3CC3)nc12,-1%,-15%,?,-18%,/,?,-6%,/
COc1ccc(CC(=O)Nc2nc(-c3cc(OC)ccc3OC)cs2)cc1,12%,?,?,3%,/,?,-7%,/
Cc1ncc([N+](=O)[O-])n1Cc1cccc(F)c1,/,-14%,10%[46.1 µM],-14%,/,-5%[46.1 µM],-1%,/
CCOC(=O)N1CCC(NC(=O)c2ccc3c(c2)N(Cc2ccccc2)CCS3)CC1,10%,?,/,0%,-7.8%,/,-9%,?
COc1ccc(S(=O)(=O)Nc2cccc(-c3ccc(N4CCCCCC4)nn3)c2)cc1OC,-4%,15%&57%,-17%[46.1 µM],0%,-4.6%,/,-4%,-2%
C[C@@H](C(=O)Nc1ccc2ccccc2c1)[C@H]1C[C@]1(C)[C@H](NC(=O)OCc1ccccc1)c1ccccc1,?,-22%,?,9%,-0.2%&2.8%,?,?,?
O=C(COC(=O)c1cncc(Br)c1)NCc1ccc(Cl)cc1,1%,-1%,/,6%,/,/,1%,/
CC1=C(C(=O)Nc2cccc(C(F)(F)F)c2)C(c2ccccn2)n2ncnc2N1 (stereo not given),/,-16%,11%[46.1 µM],/,-0.3%,/,/,13%
CCc1nc(SCC(=O)Nc2nnc(CC)s2)c2c(=O)n(C)c(=O)n(C)c2n1,13%,-9%,/,-3%,/,/,3%,/
O=C1CNC(=S)N1CCOc1ccccc1,9%,-4%,-1%,10%,/,-5%[14.2 µM],0%,/
CCn1cc(C(=O)NCCC(C)C)c(=O)c2cc(S(=O)(=O)N3CCCCC3)ccc21,6%,-11%,/,6%,/,/,5%,/
COc1cc(C(=O)NCc2nnc(SCC(=O)Nc3c(C)cc(C)cc3C)o2)cc(OC)c1OC,-2%,-3%,18%[46.1 µM],8%,/,2%[46.1 µM],3%,/
Cc1noc(C)c1S(=O)(=O)NCc1ccc2c(c1)OCO2,-5%,0%,/,7%,1.4%,/,-7%,-12%
O=C1c2ccccc2C(=O)C1(CO)c1ccc(OC(F)F)cc1,11%,-53%,/,-3%,/,/,-1%,/
N[C@@H](CS(=O)O)C(=O)O,-4%,-5%&-16%&-1%,9%,/,5.8%&-0.3%,1%&38%&38%&38%&38%&38%,/,1%&6%
C=CCn1c(SCC(=O)Nc2ccccc2OC)nnc1-c1ccco1,-12%,/,/,/,1.1%,/,1%,-9%
O=C(NCC(=O)N1CCN(c2ccccc2O)CC1)c1cccs1,/,2%,10%,2%,/,24%[46.1 µM],10%,/
Cn1cc(Br)c(C(=O)N2CCc3ccccc32)n1,6%,0%,9%,?,0.9%,9%&9%,7%,7%
Cc1ccc(S(=O)(=O)N2CCC(C(=O)Nc3ccncc3)CC2)cc1,/,4%,8%,2%,/,-29%,2%,/
CN(Cc1ccccc1)c1ncnc2sccc12,-24%,?,-21%,9%,/,?,1%,/
CC(C)(C)C(=O)NC(=S)N1CCc2ccccc21,10%,14%,/,-3%,/,/,0%,/
CC1CCN(c2nc3c(c(=O)[nH]c(=O)n3C)n2CCSc2nc3ccccc3o2)CC1,-8%,/,/,/,1.1%,/,1%,9%
COc1ccccc1NS(=O)(=O)c1cccc(NC(=O)NCCCl)c1,1%,8%,/,-2%,/,/,7%,/
Cc1ccc2nc(-c3ccc(C)c(NC(=O)Cc4ccccc4)c3)oc2c1,/,-21%,0%[46.1 µM],/,-1.2%,/,/,0%
CSCC[C@H](NC(=O)[C@@H]1Cc2ccccc2CN1)C(=O)NC1CCCC1,-6%,13%,/,-6%,/,/,2%,/
Cc1nn(C)c(Cl)c1S(=O)(=O)N[C@@H](c1ccccc1)[C@]1(C)C[C@H]1[C@@H](C)C(=O)Nc1ccc2ccccc2c1,?,27%,?,18%,-4.3%&-2.1%,-19%,-6%,16%&15%
COc1cc(SC)ccc1C(=O)Nc1ccc(C)cc1,-52%,2%,?,-19%,/,-12%[46.1 µM],-3%,/
CCNc1oc(COc2ccccc2F)nc1C#N,-11%,73%[activator],21%,15%,-0.2%,5%,3%,-2%
Brc1ccccc1-c1nnc(COc2ncnc3ccccc23)o1,-4%,-9%,-15%,23%,/,-5%[46.1 µM],0%,/
COCCn1nnnc1C(C(C)C)N1CCCC(C)C1 (stereo not given),2%,-1%,/,18%,/,/,-2%,/
CCCCn1c(C23CC4CC(CC(C4)C2)C3)n[nH]c1=S,-64%,-1%,?,8%,/,?,?,/
C/C(=N\NC(=O)c1ccc(Cl)cc1)c1ccc2[nH]ccc2c1,-6%,34%[activator],-27%,-17%,/,23%,-1%,/
CCCOc1ccc(-c2c(C(=O)N/N=C/c3ccccc3)nnn2-c2nonc2N)cc1,10%,-1%,-12%,5%,/,-24%,-6%,/
COc1ccc(-n2nc(C(=O)NCC(=O)NCCCN3CCN(C)CC3)c3ccccc3c2=O)cc1,-8%,9%,/,-21%,/,-1%[46.1 µM],2%,/
COc1cccc(-c2ccc3c(N)c(C(=O)Nc4cc(F)ccc4F)sc3n2)c1,/,31%[activator],0%[46.1 µM],/,1.7%,/,/,-4%
CC(=O)/C(N)=N/Nc1cccc(Cl)c1,-29%,-16%,25%,217%,-8.9%,-10%,-40%,1%
O=c1c2c(nc3cc(-c4ccccc4Cl)[nH]n13)CCS2,9%,-10%,-26%[46.1 µM],0%,/,?,0%,/
CCN1CCN(Cc2c(OC)ccc3ccccc23)CC1,10%,-6%,-41%[14.3 µM],-14%,3.1%,?,1%,-10%
CC1C(c2ccccc2)N(C)CCC12NC(=O)NC2=O (stereo not given),-1%,14%,10%,3%,7.2%,5%,3%,4%
NC(=O)COc1ccc(Nc2nnc(-c3ccc(O)cc3)c3ccccc23)cc1,-1%,-15%,/,3%,/,/,-1%,/
CCCCn1c(N)c(N(Cc2ccccc2OC)C(=O)c2ccc(N3CCCC3=O)cc2)c(=O)[nH]c1=O,/,24%,4%[46.1 µM],-3%,/,?,-3%,/
O=C(NCC(c1ccc(F)cc1)N1CCOCC1)c1cc(F)c(F)c(F)c1F (stereo not given),1%,1%,-1%,-7%,/,?,5%,/
CN(C)c1ccc(Cc2ccc(N(C)C)cc2)cc1,/,-5%,/,?,-4.4%,/,/,-2%
CCOC(=O)C(CSCC(=O)c1ccc(Br)cc1)NC(=O)OC(C)(C)C (stereo not given),-59%,/,/,/,-4.7%,-1%,-1%,1%
COCCN(CC(=O)NCC1CCCO1)C(=O)CCC(=O)Nc1cc(C)ccn1 (stereo not given),1%,8%,?,3%,4.7%,?,5%,-6%
Cc1cc(C(F)F)n2nc(C(=O)Nc3cccc(C(F)(F)F)c3)nc2n1,0%,-17%,1%,-4%,0.7%,-19%,3%,-19%
CCc1cccc(NC(=O)c2cc(S(=O)(=O)N3CCCCCC3)cn2C)c1,/,-25%,6%[46.1 µM],/,-5.6%,/,/,-6%
CCOc1cccc(Oc2ccc(C(F)(F)F)cn2)c1,?,-3%,-3%,-2%,-0.2%,-9%,2%,-3%
O=C(CCCc1ccccc1)Nc1ccnn1C1CCN(Cc2ccc(Cl)cc2)CC1,-13%,?,/,-20%,/,/,-2%,/
O=C(Cn1nc(-c2ccccc2)oc1=O)OCC(=O)c1ccccc1,/,-4%,18%,8%,/,?,8%,/
c1cc[n+](CCCC[n+]2ccccc2)cc1,7%,-13%,/,12%,/,/,8%,/
CC(=O)NS(=O)(=O)c1ccccc1,0%,/,2%,-3%,2.5%,13%,-5%,3%
CCOC(=O)N1CCN(CC(=O)Nc2ccc(Oc3ccccc3)cc2)CC1,-47%,?,0.56µM*,27%,1.6%,-27%,1%,0%
C=CCN(CC(=O)Nc1c(C)cccc1CC)C(=O)SCCC,6%,-20%,-12%,-1%,4.3%,-8%,5%,-1%
CNc1cc(C(F)(F)F)nc(-c2ccccn2)n1,-7%,-3%,13%,24%,1.6%,-3%,3%,-5%

# (cont.)
SMILES,NS1 function inh,StopGo reporter,LASV entry inh,RE007 growth inh,Cruzain Triton,Marburg entry inh,SARS PLP yeast,Cruzain noTriton
COC(=O)Cc1c(O)ccn(Cc2ccc3c(c2)OCO3)c1=O,5%,7%,3%,4%,/,?,0%,/
COc1ccc(OC(=O)NCCc2ccccc2)cc1,-5%,18%,?,-9%,/,?,-1%,/
CCOc1ccccc1OCc1nn2c(-c3ccc(C)cc3)nnc2s1,-102%,/,3%,14%,-5.7%,16%,-16%,-8%
Cc1cc(C)nc(NS(=O)(=O)c2cccs2)c1,10%,86%[activator],17%,6%,-4.6%,?,8%,6%
Cc1ccc(SCC(=O)NNC(=O)CCS(=O)(=O)c2ccc(C)cc2)cc1,/,-4%,-4%,-16%,/,13%,0%,/
Cc1nc2ccc(C(=O)Nc3ccc(N(C)C)cc3)cc2s1,/,35%[activator],?,-9%,/,13%,/,/
CC1CC(C)(C)N(C(=O)NC2CCCCC2)c2ccccc21 (stereo not given),8%,?,16%,?,-4.9%,?,-22%,-2%
Cn1ncc(Cl)c1C(=O)Nc1sc2c(c1C(N)=O)CCC2,-6%,-12%,-2%,13%,-1.6%,-1%,1%,-15%
CSc1ccccc1NC(=O)c1ccccc1N(Cc1ccccc1)S(C)(=O)=O,-7%,-14%,-3%,-2%,-0.4%,-5%,-1%,-7%
CCN(CC)c1ccc(C(=O)Nn2c(C)nc3ccccc3c2=O)cc1,-3%,-9%,/,14%,/,/,-3%,/
